GALR2 agonist: GALR2 receptor agonists, primary screen, cell-based | AID 803, 2007 | actives 0.48% (n = 140,000) | Galanin receptor type 2 (Homo sapiens), O43603 | GALR2-expressing cells, agonist activation read-out | activation, %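 (tested at 5 µM)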;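 active = above mean plus 3 SD of all compounds, about 5% in these data, not always enough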;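 note: 0% = vehicle buffer wells and 100% = reference agonist at full effect; tested in CHO reporter cells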
INS promoter inh: inhibitors of insulin promoter-driven GFP, primary screen, imaging, TRM-6 cells (human fetal islet line), eGFP reporter, cell count | actives 0.9% (n = 130,000) | inhibition, % at 2 µM | reporter expression induced with tamoxifen;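 active = inhibition above the mean plus 3 SD, with well images judged a real hit on visual review, cut at about 60% in these data, passing the limit was not always enough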
RGS16-Gao: modulators of RGS16 binding to Galphao, primary screen, biochemical, human proteins, multiplexed bead flow cytometry. bead-based flow cytometry RGS16-Galphao binding, fluorescence; actives lie on both sides. actives 0.38% (n = 220,000). binding response (% of control), % at 10 µM. AID 1441, 2008;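 active = below 25% or above 175%, edge rows of some plates excepted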;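 note: Galphao activated by GDP with aluminum fluoride before binding; 100% = wells without compound and 0% = beads without RGS; some results beyond the cut were filed as inactive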
PKD1 inh: inhibitors of human PKD1 kinase, biochemical, fluorescence polarization; Serine/threonine-protein kinase D1 (Homo sapiens), Q15139; PKD1 kinase fluorescence polarization assay; inhibition, %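 (about 10 µM by stock and volumes)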; actives 0.056% (n = 200,000); AID 797, 2007;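 active = inhibition of 50% or more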;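 note: controls were vehicle for no effect and a reference inhibitor for full effect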
Target sequence (Q15139 whole entry, looked up): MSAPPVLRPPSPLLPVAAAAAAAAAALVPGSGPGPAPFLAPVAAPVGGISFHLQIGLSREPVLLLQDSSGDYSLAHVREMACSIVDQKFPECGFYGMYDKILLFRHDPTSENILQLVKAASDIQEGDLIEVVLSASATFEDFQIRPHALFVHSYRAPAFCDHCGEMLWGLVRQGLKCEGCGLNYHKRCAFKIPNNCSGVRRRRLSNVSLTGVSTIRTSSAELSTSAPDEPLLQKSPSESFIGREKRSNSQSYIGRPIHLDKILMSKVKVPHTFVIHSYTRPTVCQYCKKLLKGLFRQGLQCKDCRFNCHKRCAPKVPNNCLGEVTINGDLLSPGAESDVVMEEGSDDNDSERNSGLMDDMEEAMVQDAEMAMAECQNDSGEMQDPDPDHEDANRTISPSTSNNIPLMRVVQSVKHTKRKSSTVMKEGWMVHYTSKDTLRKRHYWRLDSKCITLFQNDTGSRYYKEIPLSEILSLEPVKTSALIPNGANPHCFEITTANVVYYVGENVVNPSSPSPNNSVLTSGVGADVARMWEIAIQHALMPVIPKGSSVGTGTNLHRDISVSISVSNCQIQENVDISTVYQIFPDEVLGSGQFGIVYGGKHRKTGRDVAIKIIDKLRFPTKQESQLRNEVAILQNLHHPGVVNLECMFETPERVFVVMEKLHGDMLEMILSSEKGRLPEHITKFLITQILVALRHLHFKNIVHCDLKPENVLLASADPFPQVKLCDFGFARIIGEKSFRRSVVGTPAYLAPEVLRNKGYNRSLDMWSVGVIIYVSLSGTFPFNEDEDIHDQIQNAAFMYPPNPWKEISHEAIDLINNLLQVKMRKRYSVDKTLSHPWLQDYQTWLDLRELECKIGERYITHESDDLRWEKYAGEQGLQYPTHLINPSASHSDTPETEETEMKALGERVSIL
HSV augment: enhancers of HSV replication in host cells, fold increase, host cell viability. HSV replication augmentation in cells. maximum fold increase. actives 0.005% (n = 220,000). AID 1956, 2009;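 active = peak rise of 1.5-fold or more in the series; tested in PC3 cells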;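 note: first round at 10 µM; read as green reporter fluorescence; hits show the peak of a series up to 25 µM; 1 = signal of infected wells without compound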
INS promoter inh cell count: also measured in INS promoter inh; calls as there; normalized cell count, %; measured here: cell count, toxicity; reference of the scale not given here;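 cells exposed to compound for 48 h; stained nuclei by imaging scaled within each plate; lower means fewer cells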
HSV augment primary fold: further read-out of HSV augment, marked with its call; fold increase; compound at 10 µM; measured here: primary screen fold increase 10 uM; tested in PC3 cells;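 GFP signal in the first replicate; 1 = infected wells without compound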
Starred values were filed as active, the others as inactive. Hits appear at their usual frequency. About 1.3% of those tested had a hit in this group.

CCOC(=O)Cn1c(S(=O)(=O)Cc2ccccc2Cl)nc(-c2ccccc2)c1-c1ccccc1 was read as GALR2 agonist -3.3, INS promoter inh -119, RGS16-Gao 111, PKD1 inh -15, HSV augment inactive, INS promoter inh cell count 97 and HSV augment primary fold 1.2.
For COc1ccc(CNC(=O)CN(C(=O)c2cc3sccc3n2C)C2CCCC2)cc1 the results were GALR2 agonist -1.0, INS promoter inh -47, RGS16-Gao 100, PKD1 inh -5, HSV augment inactive, INS promoter inh cell count 51 and HSV augment primary fold 1.1.
`CCOc1ccc(-c2nc(C#N)c(N3CCN(CC)CC3)o2)cc1` gave GALR2 agonist -0.6, RGS16-Gao 107, PKD1 inh -6, HSV augment inactive and HSV augment primary fold 0.92.
CCCC1CCC(=NNC(=O)CNc2ccc(OC)cc2)CC1 (centres undefined) was read as GALR2 agonist -2.2, INS promoter inh 23, RGS16-Gao 56, PKD1 inh -5, HSV augment inactive, INS promoter inh cell count 106 and HSV augment primary fold 1.1.
O=C(NC(=S)Nc1cccc(NC(=O)c2ccc(Cl)cc2Cl)c1)c1cccs1 was read as GALR2 agonist -0.7, RGS16-Gao 100, PKD1 inh -2, HSV augment inactive and HSV augment primary fold 1.
Screening Cc1cc(C)c(-c2cc(C(F)(F)F)no2)c(=O)[nH]1 returned GALR2 agonist 1.2, INS promoter inh 0, RGS16-Gao 99, PKD1 inh -8, HSV augment inactive, INS promoter inh cell count 151 and HSV augment primary fold 0.86.
O=C(CN1C(=O)c2ccccc2S1(=O)=O)N1CCc2ccccc2C1 was read as GALR2 agonist 1.2, INS promoter inh 31, RGS16-Gao 104, PKD1 inh -12, HSV augment inactive, INS promoter inh cell count 183 and HSV augment primary fold 0.88.
For O=C1NC[C@@H](Cc2cccc3ccccc23)N(CC2CCCCC2)C1=O the results were RGS16-Gao 91, HSV augment inactive and HSV augment primary fold 0.84.
Clc1ncnc2scc(C3COc4ccccc4O3)c12 (centres undefined) was read as GALR2 agonist -1.2, INS promoter inh 12, RGS16-Gao 106, PKD1 inh -11, HSV augment inactive, INS promoter inh cell count 124 and HSV augment primary fold 0.9.
For CCCc1cc(C(=O)N2CCN(c3ccccc3C)CC2)cs1 the results were GALR2 agonist -1.7, INS promoter inh -38, RGS16-Gao 104, PKD1 inh -3, HSV augment inactive, INS promoter inh cell count 83 and HSV augment primary fold 1.2.
Screening CCOC(=O)Cc1csc(SCC(=O)c2c(N)n(CC(C)C)c(=O)n(C)c2=O)n1 returned GALR2 agonist -1.3, INS promoter inh 12, RGS16-Gao 69, PKD1 inh 7 and INS promoter inh cell count 103.
Screening Cc1ccc2nc(NC(=O)c3ccc4c(c3)OCO4)sc2c1 returned GALR2 agonist -1.3, INS promoter inh -7, RGS16-Gao 103, PKD1 inh 8, HSV augment inactive, INS promoter inh cell count 102 and HSV augment primary fold 0.79.
Screening CC(=O)c1c(C)[nH]c(C(=O)OCCOc2ccccc2)c1C returned INS promoter inh 25, RGS16-Gao 110, PKD1 inh -2, HSV augment inactive, INS promoter inh cell count 191 and HSV augment primary fold 0.83.
CC(C)(C)c1ccc(C(=O)NCC(=O)OCC(=O)Nc2nc(-c3ccc(F)cc3)cs2)cc1 was read as RGS16-Gao 99, PKD1 inh 5, HSV augment inactive and HSV augment primary fold 0.94.
Screening COc1ccc(F)cc1S(=O)(=O)N1CCC(C(N)=O)CC1 returned GALR2 agonist -2.2, INS promoter inh -13, RGS16-Gao 102, PKD1 inh -9, HSV augment inactive, INS promoter inh cell count 242 and HSV augment primary fold 0.94.
COc1ccc(Nc2nc(Nc3ccc(OC)cc3)nc(-n3[nH]c(=O)c(C)c3C)n2)cc1 was read as GALR2 agonist 73*, RGS16-Gao 79, PKD1 inh -3, HSV augment inactive and HSV augment primary fold 0.81.
Screening CCOC(=O)Cn1c(=N)n(CCOc2ccc(OC)cc2)c2ccccc21 returned GALR2 agonist -2.8, INS promoter inh -14, RGS16-Gao 95, PKD1 inh 1, HSV augment inactive, INS promoter inh cell count 74 and HSV augment primary fold 1.
Screening O=C(Nc1ccc(S(=O)(=O)Nc2ncccn2)cc1)c1ccco1 returned GALR2 agonist -3.2, INS promoter inh 5, RGS16-Gao 99, PKD1 inh 2, HSV augment inactive, INS promoter inh cell count 62 and HSV augment primary fold 0.93.
Screening Cc1ccc(NC(=S)Nc2ccc(OC(F)F)c(Cl)c2)cc1Cl returned GALR2 agonist -1.6, RGS16-Gao 80, PKD1 inh 7, HSV augment inactive and HSV augment primary fold 0.97.
Cc1ccc(S(=O)(=O)Nc2nc3n(n2)C(c2ccc(Cl)cc2)CC(=O)N3)cc1 (centres undefined) was read as GALR2 agonist -2.2, INS promoter inh 12, RGS16-Gao 101, PKD1 inh -1, HSV augment inactive, INS promoter inh cell count 107 and HSV augment primary fold 1.

4 records picked at random from those above:
Screening COc1ccc(F)cc1S(=O)(=O)N1CCC(C(N)=O)CC1 returned GALR2 agonist -2.2, INS promoter inh -13, RGS16-Gao 102, PKD1 inh -9, HSV augment inactive, INS promoter inh cell count 242 and HSV augment primary fold 0.94.
CCCC1CCC(=NNC(=O)CNc2ccc(OC)cc2)CC1 (centres undefined) was read as GALR2 agonist -2.2, INS promoter inh 23, RGS16-Gao 56, PKD1 inh -5, HSV augment inactive, INS promoter inh cell count 106 and HSV augment primary fold 1.1.
Screening Cc1ccc2nc(NC(=O)c3ccc4c(c3)OCO4)sc2c1 returned GALR2 agonist -1.3, INS promoter inh -7, RGS16-Gao 103, PKD1 inh 8, HSV augment inactive, INS promoter inh cell count 102 and HSV augment primary fold 0.79.
COc1ccc(Nc2nc(Nc3ccc(OC)cc3)nc(-n3[nH]c(=O)c(C)c3C)n2)cc1 was read as GALR2 agonist 73*, RGS16-Gao 79, PKD1 inh -3, HSV augment inactive and HSV augment primary fold 0.81.

(more compounds)
Screening CCn1c(CSc2nc3ccccc3n2C)nc2ccccc21 returned GALR2 agonist -0.7, RGS16-Gao 105, PKD1 inh 3, HSV augment inactive and HSV augment primary fold 0.94.
O=C1c2cccc(OCC(=O)N3N=C(c4cccs4)CC3c3ccc(F)cc3)c2CCN1Cc1ccccc1 (centres undefined) was read as GALR2 agonist 0.2, INS promoter inh 18, RGS16-Gao 105, PKD1 inh -3, HSV augment inactive, INS promoter inh cell count 145 and HSV augment primary fold 0.95.
`CCOC(=O)C(NC(=O)N1CCCCC1)(c1ccccc1)C(F)(F)F` (centres undefined) gave GALR2 agonist 1.6, INS promoter inh -44, RGS16-Gao 107, PKD1 inh 3, HSV augment inactive, INS promoter inh cell count 109 and HSV augment primary fold 0.86.
For Cc1cc(C)nc(-n2nc(C)c3c(=O)[nH]c(C(F)(F)F)nc32)n1 the results were GALR2 agonist -0.4, RGS16-Gao 104, PKD1 inh 5, HSV augment inactive and HSV augment primary fold 0.97.
Screening COc1ccc(-c2nnn(CC(=O)N(C3CCCCC3)C(C)C(=O)NC3CCCC3)n2)cc1OC (centres undefined) returned GALR2 agonist 0.2, INS promoter inh -21, RGS16-Gao 98, PKD1 inh -4, HSV augment inactive, INS promoter inh cell count 133 and HSV augment primary fold 0.96.
Cc1ccc(NC(=O)c2ccc(CSc3nccc(C)n3)cc2)cc1 was read as GALR2 agonist -0.3, RGS16-Gao 99, PKD1 inh -1, HSV augment inactive and HSV augment primary fold 1.
C[N+](C)(CC#N)C/C=C\c1ccccc1 was read as RGS16-Gao 116, PKD1 inh 3, HSV augment inactive and HSV augment primary fold 0.86.
Screening O=C1C(Cl)=C(NCC2CCCO2)C(=O)N1c1cccc(Cl)c1Cl (centres undefined) returned GALR2 agonist -0.3, INS promoter inh -43, RGS16-Gao 104, PKD1 inh -12, HSV augment inactive, INS promoter inh cell count 36 and HSV augment primary fold 0.93.
For CC1(c2ccccc2)CC(c2ccccc2)=Nc2nonc2N1 (centres undefined) the results were GALR2 agonist -0.7, INS promoter inh 55, RGS16-Gao 101, PKD1 inh 5, HSV augment inactive, INS promoter inh cell count 87 and HSV augment primary fold 1.
Screening O=C(CN1C2CCC1CC(NC(=O)C1CC1)C2)NCc1ccccc1 (centres undefined) returned GALR2 agonist -0.7, INS promoter inh 3, RGS16-Gao 111, PKD1 inh 1, HSV augment inactive, INS promoter inh cell count 72 and HSV augment primary fold 1.
Screening CCN(CC)C(=O)CSc1nc(O)c(Cc2ccccc2)c(=O)n1-c1ccc(C)cc1 returned RGS16-Gao 97, HSV augment inactive and HSV augment primary fold 1.1.
`Cn1nc(C(=O)Nc2nnc(C3CC3)s2)c2ccccc2c1=O` gave INS promoter inh 29, RGS16-Gao 99, PKD1 inh 3, HSV augment inactive, INS promoter inh cell count 104 and HSV augment primary fold 0.93.
For CCc1ccccc1NC(=O)Cc1ccc(-n2cccc2)cc1 the results were GALR2 agonist -0.9, INS promoter inh 29, RGS16-Gao 94, PKD1 inh -8, HSV augment inactive, INS promoter inh cell count 113 and HSV augment primary fold 1.
Screening COc1ccc(/C=C(\C#N)C(=O)NCCc2ccccc2)cc1OCc1ccccc1 returned GALR2 agonist -1.6, INS promoter inh 7, RGS16-Gao 95, PKD1 inh -4, HSV augment inactive, INS promoter inh cell count 84 and HSV augment primary fold 0.93.
Screening CCSc1nc2nn(-c3ccccc3)c(=O)c-2c2n1CCCCC2 returned GALR2 agonist 0.0, INS promoter inh 0, RGS16-Gao 97, PKD1 inh -17, HSV augment inactive, INS promoter inh cell count 137 and HSV augment primary fold 0.83.
Screening Cc1cc(C)c(NS(=O)(=O)c2ccc(NC(=O)c3cccs3)cc2)c(C)c1 returned GALR2 agonist -1.3, RGS16-Gao 80, PKD1 inh -10, HSV augment inactive and HSV augment primary fold 0.98.
For Cc1cc(C)n2cc(CSCC(=O)O)nc2n1 the results were GALR2 agonist -1.5, INS promoter inh -35, RGS16-Gao 99, PKD1 inh 5, HSV augment inactive, INS promoter inh cell count 78 and HSV augment primary fold 0.97.
Screening C/C(=N\O)c1c(O)cc(-c2ccccc2)n(-c2ccccc2)c1=O returned RGS16-Gao 100, HSV augment inactive and HSV augment primary fold 0.9.
`COc1ccc(NC(=O)c2c(F)cccc2F)cc1S(=O)(=O)Nc1ccc(Br)cc1` gave GALR2 agonist -0.1, INS promoter inh -38, RGS16-Gao 99, PKD1 inh 2, HSV augment inactive, INS promoter inh cell count 67 and HSV augment primary fold 0.9.
Screening COc1ccc(OCC(=O)N2CCN(S(=O)(=O)c3ccccc3[N+](=O)[O-])CC2)cc1 returned INS promoter inh -135, RGS16-Gao 104, PKD1 inh -2, HSV augment inactive, INS promoter inh cell count 18 and HSV augment primary fold 0.87.
Clc1ccc(C(c2nnnn2C2CCCC2)N2CCSCC2)cc1 (centres undefined) was read as GALR2 agonist -1.4, INS promoter inh -8, RGS16-Gao 82, PKD1 inh -6, HSV augment inactive, INS promoter inh cell count 264 and HSV augment primary fold 0.81.
O=C(C1=C[C@H](c2coc3ccccc3c2=O)C[C@H](OCCCCO)O1)N1CCN(Cc2ccccc2)CC1 was read as RGS16-Gao 104, PKD1 inh -2, HSV augment inactive and HSV augment primary fold 0.78.

Sorted by SMILES length (smallest number first): part of the list above.
For Cc1cc(C)n2cc(CSCC(=O)O)nc2n1 the results were GALR2 agonist -1.5, INS promoter inh -35, RGS16-Gao 99, PKD1 inh 5, HSV augment inactive, INS promoter inh cell count 78 and HSV augment primary fold 0.97.
Clc1ccc(C(c2nnnn2C2CCCC2)N2CCSCC2)cc1 (centres undefined) was read as GALR2 agonist -1.4, INS promoter inh -8, RGS16-Gao 82, PKD1 inh -6, HSV augment inactive, INS promoter inh cell count 264 and HSV augment primary fold 0.81.
Screening C/C(=N\O)c1c(O)cc(-c2ccccc2)n(-c2ccccc2)c1=O returned RGS16-Gao 100, HSV augment inactive and HSV augment primary fold 0.9.
Screening Cc1cc(C)c(NS(=O)(=O)c2ccc(NC(=O)c3cccs3)cc2)c(C)c1 returned GALR2 agonist -1.3, RGS16-Gao 80, PKD1 inh -10, HSV augment inactive and HSV augment primary fold 0.98.
O=C(C1=C[C@H](c2coc3ccccc3c2=O)C[C@H](OCCCCO)O1)N1CCN(Cc2ccccc2)CC1 was read as RGS16-Gao 104, PKD1 inh -2, HSV augment inactive and HSV augment primary fold 0.78.
